Mtb H37Rv – M. tuberculosis H37Rv growth inhibitors, H37Rv strain (AID 1626). M. tuberculosis H37Rv growth inhibition; higher % means a stronger effect. inhibition, % at 10 µM; hits with a dose series show IC50 in µM. 220,000 tested, 0.95% active;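 active = confirmed in a dose series; inconclusive = inhibition above 80% but not taken into the dose series; inactive = below 80% or under 30% at every dose of the series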;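 also: bacteria incubated seven days before Alamar blue readout; 0% = bacteria only wells and 100% = bacteria with antibiotic wells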
Arbovirus anti – arbovirus infection inhibition; arbovirus infection cell-based antiviral screen; inhibition, % at 10 µM; 200,000 tested, 0.37% active; AID 1251;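 active = inhibition from about 30%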;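 also: bluetongue infection of BSR cells; cell survival read as ATP light after 72 h; 0% = infected wells without compound and 100% = uninfected wells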
YopH inh – blocks Yersinia enterocolitica YopH tyrosine phosphatase; AID 898; inhibition, %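 (about 10 µM by stock and volumes)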; 140,000 tested, 0.16% active; fluorescence Ex485/Em525;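 active = inhibition of 50% or more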;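 also: controls were vehicle for no effect and minimum signal wells for full effect; inactives centre near -20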
Mtb betalactam – beta-lactam sensitization of Mtb H37Rv; M. tuberculosis H37Rv growth with meropenem, percent inhibition; hits of this screen are not shown here; inhibition, % at 25 µM; 330,000 tested, 0.27% active; AID 434955;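 active = about 74% or more and at least 40 points above the plate without the antibiotic, then above 30% in a dose series; inconclusive = first-round hits that could not be retested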;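 also: growth measured after seven days incubation then overnight dye step; 0% = bacteria only wells and 100% = bacteria with antibiotic; twin plates without the antibiotic show which effects depend on it; some results filed as inactive read as strong as hits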
RecA intein inh – Mtb RecA intein splicing inhibition | 290,000 tested, 0.75% active | cell-free RecA intein splicing, fluorescence | inhibition, %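 (about 9 µM by stock and volumes)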; in the data active = inhibition above about 30%; inconclusive = no clear call, values can overlap the other calls;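 also: 0% = vehicle wells and 100% = reference inhibitor control wells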
Target sequence (P9WHJ3 whole entry, looked up): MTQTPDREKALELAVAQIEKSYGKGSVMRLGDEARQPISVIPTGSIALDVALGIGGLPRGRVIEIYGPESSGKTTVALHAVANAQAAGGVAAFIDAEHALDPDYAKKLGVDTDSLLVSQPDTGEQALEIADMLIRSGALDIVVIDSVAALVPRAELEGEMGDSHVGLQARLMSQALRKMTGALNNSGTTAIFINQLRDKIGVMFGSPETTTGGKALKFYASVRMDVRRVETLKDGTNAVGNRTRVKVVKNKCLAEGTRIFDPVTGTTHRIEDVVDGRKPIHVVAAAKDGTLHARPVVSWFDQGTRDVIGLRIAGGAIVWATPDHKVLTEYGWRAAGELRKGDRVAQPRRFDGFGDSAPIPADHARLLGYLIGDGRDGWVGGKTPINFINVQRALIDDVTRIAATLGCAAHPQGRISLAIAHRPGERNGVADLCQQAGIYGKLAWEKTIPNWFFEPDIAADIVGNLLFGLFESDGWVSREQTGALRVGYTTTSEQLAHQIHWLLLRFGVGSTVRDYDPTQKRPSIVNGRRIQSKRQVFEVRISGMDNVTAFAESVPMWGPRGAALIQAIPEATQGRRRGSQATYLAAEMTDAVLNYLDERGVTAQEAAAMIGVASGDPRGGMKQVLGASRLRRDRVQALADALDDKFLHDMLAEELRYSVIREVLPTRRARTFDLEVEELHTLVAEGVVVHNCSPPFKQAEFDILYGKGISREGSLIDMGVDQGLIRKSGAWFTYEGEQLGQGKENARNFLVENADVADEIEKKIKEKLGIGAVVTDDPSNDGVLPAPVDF
Arbovirus anti repeat – recorded beside Arbovirus anti, whose call it bears; inhibition, %; measured here: 10K subset replicate screen; many hits read low in the repeat;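 first of two repeat runs on a subset; 0% = infected and 100% = uninfected wells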
* marks the source's active call; other numbers are inactive results; ? = inconclusive; nt = no result given. Some of the compounds tested (hit frequency here may not be typical).

SMILES	Mtb H37Rv	Arbovirus anti	YopH inh	Mtb betalactam	RecA intein inh	others
Cc1cc(C)n2c(nc3ccccc32)c1C(=O)NN	-11%	nt	nt	-12	-8.5
CC(C)CCNC(=O)CNC(=S)N(CCCN1CCOCC1)Cc1cccs1	-4%	-3	-10	-7	-0.8
CC1CCN(Cc2c(C(=O)N/N=C/c3ccc(C(F)(F)F)cc3)nnn2-c2nonc2N)CC1	nt	nt	nt	-3	3.4
COc1ccccc1N1C(C)=CC(=C(C#N)c2nc3ccccc3s2)C=C1C	10%	-7	70*	3	-6.1
O=C1CC(N2CCN(c3ccc(S(=O)(=O)N4CCCC4)cc3)CC2)C(=O)N1c1ccc(F)cc1 (stereo not drawn)	3%	1	10	4	1.5
COc1cccc(/C=N/n2c(-c3cc(C)[nH]n3)n[nH]c2=S)c1OC	-4%	nt	nt	-6	nt
O=C(COc1ccc(Cl)cc1Cl)NCC(=O)N/N=C/c1c[nH]c2ccccc12	4%	-3	-35	7	-0.7
COc1ccccc1NC(=O)/C(=C/c1ccncc1)NC(=O)c1ccccc1	nt	nt	nt	-7	-1.0
CNC(=O)NC(=O)CSc1ccc(NC(C)=O)cc1	0%	4	-48	-2	-0.3
Cc1cc(Cl)ccc1N(CC(=O)N=Nc1c(O)[nH]c2ccccc12)S(C)(=O)=O	-1%	-3	1	-8	2.7
[O-][N+]12CC[N+]([O-])(CC1)c1ccccc12	1%	1	-23	-2	2.1
Cc1ccc(C(=O)Nc2cc(Cl)ccc2-n2cncn2)o1	nt	nt	nt	-5	0.7
Cc1nn(CC(=O)Nc2ccccc2)c(=O)c2ccccc12	4%	-3	-18	-8	-0.5
CC(C)(C)c1cc(CCC(=O)NCCc2ccccn2)cc(C(C)(C)C)c1O	nt	nt	nt	-2	1.3
COc1ccc(NC(=O)CN2CCN(CC(=O)Nc3ccc(OC)cc3)CC2)cc1	nt	nt	nt	-1	4.4
COC(=O)Cn1cc(C=C2C(=O)N(C)C(=O)N(C)C2=O)c2ccccc21	nt	nt	nt	0	2.1
CSc1nnc(NC(=O)c2ccc(S(=O)(=O)N3CCOCC3)cc2)s1	nt	nt	nt	-7	-2.5
CN1CCN(C(=S)NC(=O)c2ccc(Br)cc2)CC1	?	nt	nt	50	0.1
CCOC(=O)C1CCN(c2ncnc3c2cnn3C)CC1	nt	nt	nt	2	1.2
Cc1onc(-c2ccccc2)c1C(=O)N(Cc1ccco1)Cc1cccs1	-2%	-13	nt	nt	8.6
CN(C)S(=O)(=O)c1ccc(C(=O)OCC(=O)c2ccc(OC(F)F)cc2OC(F)F)cc1	5%	-2	-34	-3	-2.6
COCCn1c(C)cc(C(=O)COC(=O)/C=C/c2cccc(OC)c2)c1C	-2%	-1	nt	-2	2.7
CCOC(=O)N1CCC(=NNC(N)=O)CC1	-5%	4	nt	-3	-3.9
O=C(CCc1nnc2n(Cc3ccc(Cl)cc3)c(=O)c3ccccc3n12)NCCCN1CCOCC1	nt	nt	nt	-2	2.2
COc1ccc(N2CCN(C(=O)c3ccc4c(c3)NC(=O)C(CSCc3cccc(F)c3)N4)CC2)cc1 (stereo not drawn)	nt	nt	nt	20	5.6
Cc1ccc2cc(CN(CC(C)C)C(=O)C3CCCO3)c(=O)[nH]c2c1 (stereo not drawn)	-14%	-2	-14	-1	1.9
Cn1nc(-c2ccc(Cl)cc2)c2cc(C(=O)NCCCN3CCOCC3)sc21	17%	-12	-14	11	nt	Arbovirus anti repeat=-10
Nc1c(N(CCC2=CCCCC2)C(=O)c2ccc([N+](=O)[O-])o2)c(=O)[nH]c(=O)n1Cc1ccccc1	nt	nt	nt	93	3.1
Cc1ccc(Cl)cc1NC(=S)Nn1cnnc1	nt	nt	nt	-4	-2.6
COc1ccc(-c2cc(C(=O)N/N=C(\C)c3cccnc3)c3cc(C)ccc3n2)cc1OC	nt	nt	nt	-2	0.0
CCCS/C(N)=N/N=C/c1cc(C)ccc1O	1%	2	-9	100	-2.6
CC(C)(C)C(=O)Nc1ccnn1C1CCN(C(=O)c2ccc(Cl)cc2F)CC1	nt	nt	nt	?	-1.0
COc1ccc(N2CCN(C3CCCN(Cc4ccc(F)c(F)c4)C3)CC2)cc1 (stereo not drawn)	nt	nt	nt	-4	-1.8
CC(C)(C)NC(=O)COC(=O)c1ccc(Cl)nc1	24%	5	nt	-10	-1.1
O=C(O)C1=C[C@@H](C2CCCCC2)C[C@@H](OCCCCO)O1	-3%	-2	nt	-7	-1.4
Cc1ccc(C(C)C)c(OCC(O)CN2CCN(CCO)CC2)c1 (stereo not drawn)	3%	-6	-20	-6	nt
COc1cc(CN2CCC(Cc3ccccc3)CC2)c([N+](=O)[O-])cc1OC	nt	nt	nt	9	-1.7
COc1ccccc1N1CCN(S(=O)(=O)c2ccc(-n3cnnn3)c(C)c2)CC1	-2%	10	-5	-2	-0.8
Cc1ccccc1NC(=O)Cn1c(O)c(N=NC(=O)c2ccccc2O)c2ccccc21	6%	-5	-1	0	-1.3
O=C(Cc1ccc(F)cc1)N1CCC2(CC1)NCCc1[nH]cnc12	nt	nt	nt	-6	-1.9
CN(C(=O)c1ccccc1)c1ccccc1C(=O)NCCc1ccccc1	nt	nt	nt	-18	0.0
CC(C)c1ccc(OCc2cccc(C(=O)N/N=C/c3cccnc3)c2)cc1	5%	-15	-18	-3	3.3
CC(=O)Oc1ccc(C(=O)N2c3ccccc3NC(=O)C2C)cc1 (stereo not drawn)	nt	nt	nt	0	3.1
O=C(COc1ccc(C(=S)N2CCOCC2)cc1)N1CCOCC1	nt	nt	nt	-3	-4.4
O=c1c2ccccc2oc2ncccc12	9%	1	3	-10	-14
O=C1CSC2(CN3CCC2CC3)N1 (stereo not drawn)	nt	1	2	-11	-1.5
O=C(Nc1ccc(F)cc1)c1ccc2nsnc2c1	-7%	nt	nt	-1	5.3
Cc1ccc(S(=O)(=O)/N=C(\CN2CCCCC2)N2CCOCC2)cc1	-6%	-2	-39	-1	3.0	Arbovirus anti repeat=-10
Clc1c(CSc2nc3ccccc3o2)nc2ccccn12	nt	8	-13	-3	-2.0
CCC1=C(OC(=O)N(CC)CC)N2C(=O)OC(=NCC(=O)OC)[C@]2(C)[C@H]2C1=CC[C@H]1C(=O)N(CC)C(=O)[C@H]12	19%	nt	nt	-8	-3.6
CCOC(=O)c1oc2cc(C)cc(O)c2c(=O)c1-c1csc(C)n1	-5%	5	-14	-1	-1.4
CN(C)c1nc(N(C)C)nc(N(C#N)CCCl)n1	nt	5	nt	-1	0.6
O=C(Nc1ccc(F)cc1F)c1cncc(Br)c1	6%	5	nt	-4	1.5
CCOc1ccc2[nH]c3c(N4CCc5ccccc5C4)ncnc3c2c1	nt	nt	nt	92	19
O=C(CSc1nnc(NC(=O)C2CC2)s1)NCc1cccs1	5%	13	nt	-3	-5.9
CCCn1c2ccccc2c2cnn(CC(=O)NCCCN3CCCCC3CC)c(=O)c21 (stereo not drawn)	nt	nt	nt	-1	2.0
Cc1ccc(-n2nnnc2SCn2nnc3ccccc3c2=O)c(C)c1	5%	15	-25	-1	-1.3
CC1CCN(S(=O)(=O)c2ccc3c(c2)N(CC(=O)NCCCN2CCCCC2C)C(=O)CS3)CC1 (stereo not drawn)	nt	nt	nt	4	-2.0
O=C(CN(c1ccccc1)S(=O)(=O)c1ccc(F)cc1)NC1CCS(=O)(=O)C1 (stereo not drawn)	-1%	5	nt	11	0.3
CCOC(=O)C1CCN(C(=O)C2CCN(S(=O)(=O)c3cccc4nsnc34)CC2)CC1	nt	nt	nt	1	-1.1

Among those listed so far, these have two or more sulfur atoms:
SMILES	Mtb H37Rv	Arbovirus anti	YopH inh	Mtb betalactam	RecA intein inh	others
CC(C)CCNC(=O)CNC(=S)N(CCCN1CCOCC1)Cc1cccs1	-4%	-3	-10	-7	-0.8
CSc1nnc(NC(=O)c2ccc(S(=O)(=O)N3CCOCC3)cc2)s1	nt	nt	nt	-7	-2.5
O=C(CSc1nnc(NC(=O)C2CC2)s1)NCc1cccs1	5%	13	nt	-3	-5.9
CC1CCN(S(=O)(=O)c2ccc3c(c2)N(CC(=O)NCCCN2CCCCC2C)C(=O)CS3)CC1 (stereo not drawn)	nt	nt	nt	4	-2.0
O=C(CN(c1ccccc1)S(=O)(=O)c1ccc(F)cc1)NC1CCS(=O)(=O)C1 (stereo not drawn)	-1%	5	nt	11	0.3
CCOC(=O)C1CCN(C(=O)C2CCN(S(=O)(=O)c3cccc4nsnc34)CC2)CC1	nt	nt	nt	1	-1.1

(list continues)
SMILES	Mtb H37Rv	Arbovirus anti	YopH inh	Mtb betalactam	RecA intein inh	others
CCCN1C(=O)/C(=C\C=C2/Sc3ccccc3N2CCO)SC1=S	28%	-8	nt	27	-1.5
Cc1ccc(F)cc1NC(=O)C1CCN(c2cnccn2)CC1	-7%	2	-44	-5	-0.4
O=C(C1CC1)N(Cc1nc2ccccc2c(=O)[nH]1)Cc1cccs1	-9%	nt	nt	-4	-0.3
CC(Oc1ccc(Br)cc1Br)C(=O)Nc1cccnc1Cl (stereo not drawn)	nt	nt	nt	97	6.9
COCCCNCCOc1cc(C(C)C)ccc1C	-11%	-4	-34	-4	1.7
Cc1cc(NC(=O)Nc2cccc(Cl)c2)n(-c2ccccn2)n1	nt	nt	nt	10	4.6
CC(=O)Oc1ccc(-c2ccc(C(=O)O)cc2)cc1	5%	0	-19	7	2.7
COc1ccc(Cl)cc1NC(=O)C(OC)c1ccccc1 (stereo not drawn)	5%	-5	nt	-1	nt
Cc1ccc(Cl)cc1N1CCN(C(=O)c2cc3c(=O)n(C)c4ccccc4c3n2C)CC1	0%	14	-28	5	-1.5	Arbovirus anti repeat=-8
O=C(NCCN1CCOCC1)c1ccc([N+](=O)[O-])cc1[N+](=O)[O-]	2.1µM*	1	-32	100	11
COc1cccc(Nc2cc(C)nc3ccccc23)c1	7%	4	-16	-10	nt
CCOC(=O)c1c(CSc2ccc(CC)cc2)oc2ccc(O)c(CN(C)C)c12	nt	nt	nt	42	10
O=C(COC(=O)Cc1cccc(C(F)(F)F)c1)NC1CCS(=O)(=O)C1 (stereo not drawn)	nt	nt	nt	-1	-0.9
CCOc1ccc(-c2cc(N3C(=O)Nc4ccccc4N3O)on2)cc1	-1%	5	-46	1	-0.2
CC1CCc2sc(C(=O)OCC(=O)NC(C)C)cc2C1 (stereo not drawn)	38%	2	nt	62	0.2
COC(=O)CCCCCNc1ccc(C(=O)OC)cc1N	9%	-1	-27	-3	-9.2
O=C(Oc1ccc(N(C(=O)c2ccncc2)S(=O)(=O)c2cccs2)cc1)c1ccncc1	-1%	-6	nt	-2	9.7
COc1ccc(/C=N/Nc2nc(NCc3ccco3)nc(Nc3ccc(OC)cc3)n2)cc1	5%	-4	-17	54	0.4
CC(C)(C)NC(=O)c1ccc2c(c1)C(=O)N(Cc1ccco1)C2=O	nt	nt	nt	1	-2.8
O=C(O)CCC(=O)Nc1sc2c(c1C(=O)NC1CCCC1)CCCC2	nt	nt	nt	-5	-1.7
CCOc1ccc(C2C(C#N)=C(N)Oc3cc(C)n(Cc4ccco4)c(=O)c32)cc1OC (stereo not drawn)	4%	3	11	0	-0.4
O=C(/C=C/c1cccc([N+](=O)[O-])c1)n1cnc2ccccc21	-2%	-28	nt	nt	1.6
O=C(C1CCN(Cc2ccc(Cl)cc2)CC1)N1CCN(Cc2ccc3c(c2)OCO3)CC1	nt	nt	nt	-1	-0.1
COc1ccccc1N=Nc1[nH]c2ccc(C)cc2c1O	10%	3	-22	1	-1.3
O=S(=O)(Cc1ccccc1)N1CCCc2ccccc21	0%	-10	nt	6	-1.4
COc1ccc(C(=O)NNC(=O)c2cnccn2)cc1[N+](=O)[O-]	-4%	-10	3	7	-1.1
COc1ccc(N(CC(=O)Nc2ccc(F)c(F)c2)S(=O)(=O)c2c(C)[nH]c(=O)[nH]c2=O)cc1	nt	nt	nt	-3	3.0
O=C(NCCc1ccccc1)C1CC(=O)N(C2CCCC2)C1 (stereo not drawn)	nt	nt	nt	-5	0.4
CCC(=O)Nc1nc(N)n(-c2ccccc2)n1	-4%	4	0	2	-2.3
COc1ccc(/C=C/C(=O)c2cc(Cl)cc(Cl)c2O)c(OC)c1	0%	nt	nt	1	-0.2
COc1cc(C2NC(=O)NC(C)=C2C(=O)OC(C)(C)C)ccc1OCC(N)=O (stereo not drawn)	-4%	4	-23	-12	-4.9
CN(CCc1ccccc1)C1CCCN(S(=O)(=O)c2cccc(F)c2)C1 (stereo not drawn)	nt	nt	nt	-5	-1.4
COc1cccc(CNc2ccc3c(c2)CCC3)c1	38%	-2	-8	97	-1.2
O=C(O)CCc1nn2c3ccccc3n(Cc3ccccc3)c2nc1=O	-4%	0	nt	-7	1.3
c1nnc(NC2=NCCCCC2)s1	-4%	10	-10	0	-0.8
CCN1CCCC1CNC(=O)c1ccccc1Cl (stereo not drawn)	0%	11	-18	-9	2.1
